Source: PubChem BioAssay
FGF22 binding: shifts melting point of recombinant human FGF22; calls only at 9.99 µM; AID 651658; hit rate 1.5% among 340,000; recombinant FGF22 thermal shift, SYPRO orange fluorescence; percent of sucrose octasulfate shift, DMSO zero;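 active means melting point raised past a set limit in the mean and every replicate; three in four hits are not shown here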
B2AR ag: activates human beta-2 adrenergic receptor causing internalization; hit rate 0.43% among 340,000; response, % (concentration not given with the values); Am2.2-beta2AR cells, FAP receptor internalization, flow cytometry; reference of the scale not given here; P07550;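 active means response above a set limit, near 3 SD of response in nonfluorescent compounds, cut at about 42% in these data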;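 further: stock transfer was 100 nL into about 11 µL; a reference agonist was the positive control; negative values mostly stem from fluorescent compounds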
Target sequence (P07550 whole entry, looked up): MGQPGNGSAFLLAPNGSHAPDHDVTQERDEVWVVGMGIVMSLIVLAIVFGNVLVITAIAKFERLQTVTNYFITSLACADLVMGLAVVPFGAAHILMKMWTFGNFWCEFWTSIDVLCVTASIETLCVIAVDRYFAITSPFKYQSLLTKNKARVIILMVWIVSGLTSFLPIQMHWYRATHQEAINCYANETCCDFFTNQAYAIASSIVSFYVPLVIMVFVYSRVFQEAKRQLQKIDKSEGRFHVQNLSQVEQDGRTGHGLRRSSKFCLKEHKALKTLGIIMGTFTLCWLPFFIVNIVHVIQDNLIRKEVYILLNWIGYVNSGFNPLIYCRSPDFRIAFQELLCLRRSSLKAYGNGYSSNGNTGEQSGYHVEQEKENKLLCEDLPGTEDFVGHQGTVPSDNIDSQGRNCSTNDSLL
UCH37 inh: blocks the human deubiquitinase UCH37 | AID 588478 | inhibition, % (no concentration beside the values) | purified proteasome/UCH37, Ub-AMC cleavage fluorescence | Q9Y5K5 | hit rate 0.33% among 330,000;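 active means mean of two replicates above 20%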;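 further: 0% = compound-free wells with enzyme and 100% = wells lacking proteasome; stock transfer was 100 nL into about 20 µL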
Target sequence (Q9Y5K5 whole entry, looked up): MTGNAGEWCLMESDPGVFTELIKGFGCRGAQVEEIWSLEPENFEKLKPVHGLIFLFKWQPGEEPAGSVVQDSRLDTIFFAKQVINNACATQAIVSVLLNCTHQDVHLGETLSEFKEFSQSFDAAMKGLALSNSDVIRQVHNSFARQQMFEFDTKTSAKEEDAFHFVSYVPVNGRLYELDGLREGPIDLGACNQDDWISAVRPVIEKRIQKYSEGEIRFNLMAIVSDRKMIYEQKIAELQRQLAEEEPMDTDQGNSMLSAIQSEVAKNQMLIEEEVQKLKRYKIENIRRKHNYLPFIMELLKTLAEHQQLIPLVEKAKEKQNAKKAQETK
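Signal – fluorescence, ex 355 nm, em 460 nm · System – Proteasome-bound UCH37 · Input – 0.15 nM proteasome as dispensed · Timing – 30 min preincubation with enzyme, 25 min cleavage at room temperature · Read-out basis – percent inhibition of cleavage signal versus uninhibited and no-proteasome wells · Medium – Tris-HCl pH 7.4 with ATP-MgCl2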
LANA-H2A inh: blocks KSHV LANA binding to histone H2A/H2B; hit rate 0.6% among 320,000; AID 2629; Q9QR71; inhibition, % (test concentration not listed); cell-free LANA-H2A/H2B peptide, fluorescence polarization; in the data active means inhibition mostly above about 10%, no sharp cut-off; inactive means mostly below about 6.7%;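 further: stock transfer was 7.5 nL into about 10 µL; 0% = median of vehicle wells and 100% = median of positive control wells; one replicate is shown; the record names a cut of 25% in any replicate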
HNF4A DNA FP: change in binding of human HNF4 alpha to DNA. P41235. HNF4a-FITC DNA binding, fluorescence polarization, 1 h. activity change, % at 10 µM. hit rate 0.3% among 360,000. AID 1224865; in the data active means activity change above about 30%, passing the limit was not always enough;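 further: controls were the assay level and a saturating level of protein; the project sought stronger binding though the title names inhibitors; some compounds called inactive have numbers as strong as hits; positive values seem to mean higher polarization but the record does not say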
ALR inh: blocks human ALR sulfhydryl oxidase activity; inhibition, % (no concentration beside the values); hit rate 3.8% among 290,000; purified ALR, DTT oxidation, H2O2 HRP-luminol luminescence; AID 485317; P55789;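 active means mean and each replicate at 75% or more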;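 further: stock transfer was 7.5 nL into about 7.5 µL; 0% = neutral wells and 100% = wells with inactivated enzyme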
Target sequence (P55789 whole entry, looked up): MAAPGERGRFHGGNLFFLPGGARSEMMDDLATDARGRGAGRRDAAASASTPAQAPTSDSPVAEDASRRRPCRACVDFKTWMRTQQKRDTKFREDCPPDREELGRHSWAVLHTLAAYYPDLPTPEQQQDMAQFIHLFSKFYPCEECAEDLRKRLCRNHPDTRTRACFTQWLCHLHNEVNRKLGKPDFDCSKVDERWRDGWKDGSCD
Ecoli growth: inhibitors of Escherichia coli growth; OD600, 23 h; stronger effect = lower value; OD600 absorbance (no concentration beside the values); hit rate 0.21% among 330,000; AID 1053175;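 active means OD600 absorbance below the run mean of sample wells minus 3.6 SD, in any replicate, cut at about 0.56 in these data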;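 further: stock transfer was 300 nL into about 60 µL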
Active calls of the source: *; i = inactive; . = no result given. Some of the compounds tested; count on the stated rates, not on these rows.

Order of results – FGF22 binding	B2AR ag	UCH37 inh	LANA-H2A inh	HNF4A DNA FP	ALR inh	Ecoli growth
CC(C)(C)S(=O)N1Cc2cc(CO)cc(-c3ccccc3)c2[C@@H]1CCO (some centres undefined)
→ i	9	2.2	.	17	.	0.69
CN(/N=C/c1ccc(C(C)(C)C)cc1)C1=NCCN1
→ i	4	.	0.9	-2.3	-2	.
Cc1cc(Nc2ncc(Cl)cc2Cl)n(-c2ccccc2C)n1
→ .	-15	2.2	-0.8	0.3	.	0.68
O=C(/C=C/Nc1ccccc1)c1ccc(Cl)cc1Cl
→ i	-10	-2.2	5.1*	3.7	42	0.67
Cc1[nH]c(=O)[nH]c(=O)c1S(=O)(=O)N(CC(C)C)CC(C)C
→ i	8	3.7	7.3	2.0	5	0.67
Cc1noc(NS(=O)(=O)c2ccc(NC(=O)CSc3nc4c(cc3C#N)CCCCC4)cc2)c1C
→ .	-4	1.5	0.3	-0.3	54	0.68
Cc1oc(-c2ccccc2)nc1CS(=O)CC(=O)NC1CCCCCC1 (centres undefined)
→ i	-3	0.3	0.0	3.2	100*	0.63
Cc1ccccc1C(=O)N1CCC(C(=O)N(C)CC(=O)Nc2cccc(F)c2)CC1
→ i	-4	-1.9	-0.3	4.0	0	0.72
Cc1ccc(/C=N/Nc2cn[nH]c(=O)n2)o1
→ i	-5	.	5.4	-1.4	-2	.
COc1cc2c(c(OC)c1OC)C(c1ccccc1C)CC(=O)O2 (centres undefined)
→ i	3	1.5	.	1.8	.	0.71
COc1ccc(N2CCN(C(=O)CCC(=O)N3CC(C)Oc4ccccc43)CC2)cc1 (centres undefined)
→ i	-1	-0.8	4.5	1.7	78*	0.71
O=C(C1CCC(N2C(=O)C3CC=CCC3C2=O)CC1)N1CCCCC1 (centres undefined)
→ i	-1	0.5	-3.8	-4.2	-2	0.72
S=C(NCc1ccc(Cl)cc1)NC1CCN(Cc2ccccc2)CC1
→ i	5	3.4	-4.9	0.0	-7	0.63
Cc1cc(Sc2nc(NC(C)(C)C)nc(N3CCOCC3)n2)nc(Cl)n1
→ .	-8	-1.7	2.5	2.1	-1	0.65
CC1CCCN(c2c([N+](=O)[O-])c(=O)oc3ccccc23)C1 (centres undefined)
→ .	6	7.0	-1.0	4.8	-2	0.65
CCOC(=O)N1CCN(S(=O)(=O)c2ccc(Br)cc2)CC1
→ i	-6	4.1	4.0	-2.0	-10	0.65
Cc1ccc(CSCc2ccc(C(=O)O)o2)cc1
→ i	4	3.6	1.6	-1.4	-14	0.63
O=C(/C(=C/O)N=Nc1ccccc1)c1cccs1
→ i	19	4.3	1.0	-1.2	-1	0.68
c1ccc(-c2nnsc2-c2ccccc2)cc1
→ i	1	1.8	-1.5	3.0	.	0.68
CC(C)(CNC(=O)c1ccc(S(=O)(=O)N2CCCC2)cc1)N1CCOCC1
→ i	9	1.7	-0.6	-3.4	-39	0.7
Cn1nnc(NC(=S)NC(=O)c2cccs2)n1
→ i	-4	1.8	-3.4	6.4	-6	0.68
Cc1nn(-c2ccccc2)c(C)c1C(=O)OCC(=O)NC12CC3CC(CC(C3)C1)C2
→ i	0	2.4	-4.4	1.6	4	0.71
Cc1cc(Nc2ccccc2F)n2nc(C)nc2n1
→ i	2	3.4	-2.9	-7.1	-9	0.71
COC(=O)c1c(C(=O)OC)c(-c2ccccc2)n2c1CS(=O)C2 (centres undefined)
→ .	11	-0.3	-3.8	-0.7	-5	0.69
Cn1cc(C(=O)NCc2ccc(F)cc2)c(=O)c2cc(S(=O)(=O)N3CCCCC3)ccc21
→ i	-14	.	.	5.4	.	.
CSc1nnc(C)c(/C=C/NOCc2cccc(F)c2)n1
→ i	12	12	1.1	-0.2	17	0.7
Cc1nc(-c2ccc(F)cc2)c(CC(=O)N(C)CC(=O)Nc2ccccc2Cl)s1
→ i	3	.	-0.7	3.4	-27	.
CCOC(=O)c1cc(=O)n2[nH]c(-c3ccc(C)cc3)cc2n1
→ .	0	-36	0.5	-0.7	-5	0.71
Cc1c(N2C(=O)/C(=C\c3ccc(N(C)C)cc3)N(C)C2=S)c(=O)n(-c2ccccc2)n1C
→ .	-3	20	-4.9	44*	.	0.68
CCOC(=O)c1c(NC(=O)c2c(C(=O)O)cccc2[N+](=O)[O-])sc(C)c1C
→ i	5	6.9	7.3	-1.8	-2	0.7
Cc1ccc(-c2noc(-c3ccno3)n2)cc1
→ i	1	3.6	3.8	-2.4	6	0.71
Cc1ccc(-c2nnn(CC(=O)N(CC(=O)NC(C)C)c3cnc4ccccc4c3)n2)o1
→ i	7	2.1	4.5	-3.5	-2	0.7
Cc1cc(NC(=O)C(Cl)Cl)cc2c1OCO2
→ i	1	-0.2	.	6.3	.	0.69
COc1cc2cnc(-c3ccsc3)c(-c3ccc(F)cc3)c2cc1OC
→ i	0	0.5	-1.8	4.2	-10	0.7
CCOc1ccc(CCNC(=O)Cc2ccc(NC3=NC4CS(=O)(=O)CC4S3)cc2)cc1 (centres undefined)
→ i	1	1.1	1.1	1.0	-16	0.77
CCn1c(SCC(=O)NC2CCCCC2)nnc1-c1ccccn1
→ i	-2	0.9	2.1	3.4	-8	0.71
Cc1onc(-c2ccccc2)c1CNS(=O)(=O)c1cccc(Cl)c1
→ .	-3	2.3	-2.6	0.2	-6	0.65
C#CCNc1nc(CC)nc2c1nnn2Cc1ccccc1F
→ .	-3	3.7	-2.3	1.6	6	0.75
N#C/C(=C\c1ccc(O)c([N+](=O)[O-])c1)c1nc2ccccc2s1
→ i	4	4.6	.	21	.	.
Cc1ccc(S(=O)(=O)N2CCCCC2)cc1NC(=O)COC(=O)C1CC2C=CC1C2 (centres undefined)
→ .	-2	5.9	-4.3	-3.4	-7	0.68

A different layout for some results above:
CCn1c(SCC(=O)NC2CCCCC2)nnc1-c1ccccn1
  FGF22 binding: i | B2AR ag: -2 | UCH37 inh: 0.9 | LANA-H2A inh: 2.1 | HNF4A DNA FP: 3.4 | ALR inh: -8 | Ecoli growth: 0.71

CCOC(=O)c1cc(=O)n2[nH]c(-c3ccc(C)cc3)cc2n1
  FGF22 binding: . | B2AR ag: 0 | UCH37 inh: -36 | LANA-H2A inh: 0.5 | HNF4A DNA FP: -0.7 | ALR inh: -5 | Ecoli growth: 0.71

COc1cc2c(c(OC)c1OC)C(c1ccccc1C)CC(=O)O2 (centres undefined)
  FGF22 binding: i | B2AR ag: 3 | UCH37 inh: 1.5 | LANA-H2A inh: . | HNF4A DNA FP: 1.8 | ALR inh: . | Ecoli growth: 0.71

CCOc1ccc(CCNC(=O)Cc2ccc(NC3=NC4CS(=O)(=O)CC4S3)cc2)cc1 (centres undefined)
  FGF22 binding: i | B2AR ag: 1 | UCH37 inh: 1.1 | LANA-H2A inh: 1.1 | HNF4A DNA FP: 1.0 | ALR inh: -16 | Ecoli growth: 0.77

Next records
Order of results – FGF22 binding	B2AR ag	UCH37 inh	LANA-H2A inh	HNF4A DNA FP	ALR inh	Ecoli growth
CCN1N=C(c2ccccc2)CCC1=O
→ i	1	1.4	-14	1.3	-3	0.73
COc1cccc(CNC(=O)CCc2ccc(OC)c(OC)c2)c1
→ i	5	0.9	-1.3	-3.2	.	0.67
Fc1ccc(N2N=C(c3cccs3)CC2c2ccccc2)cc1 (centres undefined)
→ .	6	-191	3.1	9.0	-12	0.73
O=C(NCc1ccccc1)C1CC(=O)N(C2CCCCCC2)C1 (centres undefined)
→ .	-3	0.2	9.3	3.2	.	0.66
Cc1cc(C(=O)CSc2nn(-c3ccccc3)c(=S)s2)c(C)n1Cc1ccco1
→ .	3	3.6	-1.2	-0.3	-6	0.76
Cc1ccc(-c2csc(NC(=O)c3ccccc3F)c2C(=O)O)cc1
→ i	7	3.9	2.0	0.7	33	0.69
O=C(COc1c(Br)cc(Br)cc1Br)N/N=C/c1ccco1
→ .	8	.	1.1	2.3	-10	.
O=C(NC1CCN(C(=O)NCc2ccccc2)CC1)c1ccco1
→ .	-2	1.3	5.0	-1.1	0	0.7
CSc1ccc(/C=C/C(=O)c2ccc(O)cc2)cc1
→ .	2	0.1	-1.7	2.0	53	0.59
O=C(Nc1ccc(Cl)cc1)OCc1cn(-c2ccc(Cl)cc2)nn1
→ .	-9	3.1	2.3	-3.2	6	0.69
CC12C(=O)N(c3ccccc3C(=O)O)C(=O)C1C1C=CC2C1 (centres undefined)
→ .	7	0.7	1.4	0.0	1	0.73
Cc1cc(NC(=O)C2CC(=O)N(c3ccccc3Cl)C2)no1 (centres undefined)
→ i	0	3.5	-1.0	0.3	3	0.68
O=C1CSC(c2ccccn2)N1Cc1cn2ccccc2n1 (centres undefined)
→ .	-11	2.5	-4.6	-1.5	-7	0.79
COc1ccccc1NC(=O)c1csc(-n2nc(C)cc2C(F)(F)F)n1
→ .	-8	-45	7.3	2.6	-4	0.71
CON(c1nc(Cl)nc(N(C)C)n1)S(=O)(=O)c1ccc(C)cc1
→ i	-7	3.0	-2.1	-1.4	6	0.69
COc1ccccc1NC(=O)CNC(=O)c1ccc(Br)o1
→ i	5	0.8	4.4	-1.2	-3	0.67
Cc1ccc(C(=O)NC2CCS(=O)(=O)C2)cc1S(=O)(=O)N1CCCCCC1 (centres undefined)
→ i	3	3.2	-4.7	1.6	4	0.67
CCOC(CNC(=O)c1nnc(Cc2cc(OC)c(OC)c(OC)c2)o1)OCC
→ i	6	0.8	-3.4	-5.3	5	0.63
CS(=O)(=O)N(CCC(=O)O)Cc1ccccc1
→ .	0	0.5	-0.7	-2.9	-1	0.72
O=C(CCc1ccccc1)N=C1SC2CS(=O)(=O)CC2N1c1cccc(F)c1 (centres undefined)
→ i	-1	5.6	-0.4	8.3	-3	0.71
O=C(NCc1nnc2c(C(F)(F)F)cc(Cl)cn12)c1cccs1
→ i	5	-1.7	6.6	-1.3	-13	0.65
CC(=O)Nc1nnc(SCC(=O)N2CCc3ccccc32)s1
→ i	-5	1.1	-0.6	-1.0	1	0.72
C=CCn1c(=NC(=O)c2ccc(S(=O)(=O)N3CCCc4ccccc43)cc2)sc2cc(S(N)(=O)=O)ccc21
→ .	8	-4.9	-4.2	0.3	-2	0.67
Cc1ccc(NC(=O)C(=O)NCC2OCCc3ccccc32)cc1 (centres undefined)
→ i	0	3.0	-0.5	-1.5	2	0.7
NC(=S)NNc1ccnc2cc(Cl)ccc12
→ i	5	4.5	-5.5	1.2	103*	0.69
CCc1noc(C)c1C(=O)Nc1ccc(S(=O)(=O)N2CCCC(C)C2)cc1 (centres undefined)
→ i	12	0.3	-3.6	-2.2	-3	0.71
O=C1c2ccc([N+](=O)[O-])cc2NC(c2ccco2)N1/N=C/c1ccco1 (centres undefined)
→ i	-5	.	2.9	1.6	-33	.
CCOC(=O)c1cnc(SC)nc1Oc1cccc(NC(=O)c2ccc(C)cc2)c1
→ .	-6	4.3	-5.2	1.6	-3	0.79
CCCCCn1nc(-c2ccccc2)c2nc3ccccc3nc21
→ .	-234	.	30*	-78	2	.
O=C(c1ccc(N2CCCC2)c([N+](=O)[O-])c1)N1CCc2ccccc2C1
→ i	-2	5.7	0.9	-4.5	-5	0.67
COc1cccc(CNC(=O)Cc2c(C(=O)O)[nH]c3ccccc23)c1
→ .	-5	4.0	-5.9	3.7	-3	0.68
COCc1c(C(=O)Nc2ccc(C)c(S(=O)(=O)N3CCOCC3)c2)oc2ccccc12
→ i	13	1.5	.	0.5	.	0.72
CCC1CCCCN1C(=O)COC(=O)CSc1ccc(C(N)=O)cc1[N+](=O)[O-] (centres undefined)
→ i	6	7.7	-0.9	6.4	-1	0.71
O=C(O)/C=C/c1cn(Cc2ccccc2)nc1-c1ccccc1
→ .	5	3.0	-10	0.9	3	0.68
O=C1C2C3C=CC(CC3)C2C(=O)N1c1ccc(Br)cc1[N+](=O)[O-] (centres undefined)
→ i	-18	4.3	8.7	-4.8	-14	0.68
CSCCC(NS(=O)(=O)c1ccc(Cl)cc1)C(=O)OCC(=O)NC12CC3CC(CC(C3)C1)C2 (centres undefined)
→ .	3	-0.9	3.6	0.0	-1	0.73
